Anthrax LT inh = inhibitors of anthrax lethal toxin internalization; 70,000 tested, 0.67% active; Cells, anthrax lethal toxin internalization, FRET ratio (460/530); Potency, µM (highest dose often 40 µM), for the others: top-dose activity change, negative = inhibition, hits mostly inhibitors; active = well fitted falling ratio curve with the 530 nm signal flat; inconclusive = other ratio curves, or a change in one channel alone; inactive = flat curves in the ratio and both channels; the % refers to the ratio; note: % is set by controls: 0 for no effect and ±100 for the full control effect; nearly all actives have a fitted effect of over 50% in size; tested in ME-180 cells; beta-lactamase reporter
Prx2 Sm inh = blocks S. mansoni peroxiredoxin 2 enzymatic activity | S. mansoni Prx2 activity coupled to TGR/GSH (TGR is thioredoxin glutathione reductase), NADPH fluorescence loss, qHTS; some inactives read as strong as hits | Potency, µM | 65,000 tested, 0.07% active | AID 448; active means full or partial inhibition curve with a strong effect at the top dose; inconclusive means weaker partial or single-point curve; inactive means no accepted curve; note: series up to 57 µM; many of its hits are not listed in these tables
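Coupled assay in which S. mansoni TGR passes NADPH reducing equivalents via glutathione to Prx2, which reduces H2O2. Compounds were preincubated 15 min at room temperature with 25 nM TGR/50 nM Prx2 mix. Kinetic NADPH fluorescence loss (ex 365/em 450 nm) was monitored.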
An asterisk follows results filed as active; ? = inconclusive; . = not tested or not shown; & = joins results of further samples; [ ] = remark or other dose. Potency is the fitted concentration of half-maximal effect. The list is partial; count on the stated rates, not on these rows.

SMILES	Anthrax LT inh	Prx2 Sm inh
Nc1nnc(SCc2ccc3c(c2)OCO3)s1	-2%	>57
CCOc1ccc(NC(=O)c2oc3ccccc3c2NC(=O)CC)cc1	-25%	>57
O=C(Nc1ccccc1)c1ccc(NCc2cccnc2)c(S(=O)(=O)N2CCOCC2)c1	4%	>57
Cc1cc(C(=O)COC(=O)c2cccs2)c(C)n1-c1c(C)n(C)n(-c2ccccc2)c1=O	14%	>57
CCCc1cc(=O)n2[nH]c(SCc3ccccc3)nc2n1	0%	>57
COc1ccc2oc(=O)c(C(=O)N3CCN(C45CC6CC(CC(C6)C4)C5)CC3)cc2c1	-4%	>57
Cc1cc(Nc2ccc(F)cc2Cl)n2ncnc2n1	-12%	>57
CCOC(=O)c1cnc(SCc2nc(N)nc(Nc3ccc(C)cc3)n2)nc1N	-11%	>57
CCOC(=O)c1cc2sccc2n1CC(=O)N1CCc2ccccc21	-23%	>57
O=C(Cn1nc(-c2ccccc2)c2ccccc2c1=O)NCC1CCCO1 (stereo not given)	.	>57
CCn1cc(C(=O)NC2CCc3ccccc32)c(=O)c2ccc(C)nc21 (stereo not given)	?	>57
CC(=O)N1CCN(c2ccc(NCc3ccc(C)cc3)cc2)CC1	2%	>57
CCc1nnc(NC(=O)CSc2nnc(-c3ccoc3C)n2-c2ccccc2)s1	7%	>57
CCCNC(=O)c1ccc2c(c1)ncn2-c1ccccc1OC	9%	>57
Cc1nnc(SCC(=O)NC2CC2)n1CCc1ccccc1	0%	>57
O=C(CSc1nc(N2CCCCC2)nc(N2CCCCC2)n1)N1CCc2ccccc21	-20%	>57
CC(C)OCC(O)CN1CCN(CC(O)COc2ccc3c(c2)OCO3)CC1 (stereo not given)	-16%	>57
O=c1oc(-c2ccco2)nc2c1cnn2-c1ccccc1	-10%	>57
CC(=O)NC1CCC(C(=O)O)(c2ccccc2)C1 (stereo not given)	-7%	>57
Cc1nc2cc(-c3cccc(F)c3)nn2c(C)c1CCC(=O)N1CCN(c2ccccn2)CC1	-16%	>57
Cc1cc(NC(=O)COC(=O)COc2ccc3c(c2)CCC3)no1	-2%	>57
Nc1nc(-c2ccccc2)nc(-c2ccccc2O)n1	?	>57
COC(=O)C(CCSC)NC(=O)C(NC(=O)C1CCC(C)CC1)C(C)C (stereo not given)	?	>57
CC(O)c1nc2ccc(Cc3ccc4nc(C(C)O)[nH]c4c3)cc2[nH]1 (stereo not given)	-8%	>57
COc1cccc(-c2ccc3ncnc(NCc4cccs4)c3c2)c1	13µM*	>57
CC1CCN(C(=O)C2Cc3ccccc3CN2S(=O)(=O)c2ccc(F)cc2)CC1 (stereo not given)	-22%	>57
O=C(NCC1CCCO1)c1cccnc1Nc1ccccc1F (stereo not given)	-4%	>57
O=C(CN1CCN(C2CCCCC2)CC1)c1ccc2cc[nH]c2c1	6%	>57
CSc1nnc(Cn2c(=O)sc3ccccc32)n1-c1ccccc1C	-9%	>57
COCCOC(=O)c1c(C)n(C)c2ccc(OC(=O)N3CCOCC3)cc12	-1%	>57
Cc1ccc(-n2ncc3c2ncn2c(-c4ccncc4)nnc32)cc1	1%	>57
CC(=O)Nc1cc2c(cc1NC(=O)c1cnccn1)OCCO2	-3%	>57
CCc1ccccc1S(=O)(=O)Cc1ccc(C(=O)NCC2CCCO2)o1 (stereo not given)	?	>57
COc1ccc(C(=O)/C=C\N2CCOCC2)cc1	-2%	.
O=C(CSc1nnc(-c2ccco2)o1)c1ccccc1	2%	>57
Cc1ccc2cc(COC(=O)c3ccncc3)c(=O)[nH]c2c1	-7%	>57
CC(C)CN1CC[C@@]2(CCCN(C(=O)c3ccncc3)C2)C1	9%	>57
CC(C)N(Cc1nc(-c2ccccc2)no1)C(=O)c1ccc2c(c1)OCO2	.	>57
CC1(C(=O)O)CCC(C(=O)N2CCOCC2)C1(C)C (stereo not given)	4%	>57
CCN(c1ccccc1)S(=O)(=O)c1cnc[nH]1	-9%	>57
CCSc1oc(-c2ccco2)nc1S(=O)(=O)c1ccc(F)cc1	3%	>57
OCCN1CCN(c2nc(-c3ccccc3)c3cc(Cl)ccc3n2)CC1	?	>57
Cc1ccc(C2=Nc3ccccc3NC(C)(c3ccc(C)o3)C2)o1 (stereo not given)	3%	>57
C[n+]1c(/C=C\c2ccc(O)c3ncccc23)[se]c2ccccc21	-7%[8 µM]	>57
CCOC(=O)c1snc(-c2ccc(F)cc2)c1N	-12%	>57
CN1CCCC(OC(=O)c2ccc3c(c2)OCCO3)C1 (stereo not given)	-5%	>57
COc1ccc(N=c2oc3cc(O)ccc3cc2C(=O)NCC2CCCO2)c(OC)c1 (stereo not given)	?	>57
COc1ccc(OC)c(-c2nc(C)sc2CC(=O)O)c1	-7%	>57
O=C(OCc1cccs1)c1ccccc1NS(=O)(=O)c1ccc2c(c1)OCCO2	?	>57
COC(=O)c1ccc(NC(=O)C23CCC(C)(C(=O)O2)C3(C)C)cc1 (stereo not given)	-9%	.
The results go on:
SMILES	Anthrax LT inh	Prx2 Sm inh
CCNS(=O)(=O)c1ccc(NS(=O)(=O)c2cc(C)ccc2C)cc1	3%	>57
CCc1nc(SCC(=O)N2CCCC2)c2ccccc2n1	-7%	>57
CC(C)CCNC(=O)Cn1c(=O)oc2cc(S(=O)(=O)N3CCc4ccccc43)ccc21	?	>57
O=C(NCCCN1CCOCC1)c1ccc(CS(=O)(=O)c2c(Cl)cccc2Cl)o1	-12%	>57
Cc1ccc2nc(CSc3nnc(-c4ccco4)n3-c3ccccc3)cc(=O)n2c1	?	>57
O=C(NCc1ccc(Cl)c(Cl)c1)c1cccnc1	1%	.
O=C(CN(C(=O)c1ccco1)c1cccc(F)c1)NCc1ccc(F)cc1	-11%	>57
COC(=O)[C@@H]1CC[C@H](C)[C@@H](c2ccc(C)cc2)N1C(=O)c1ccc(/C=N\OC[C@@H](O)[C@H]2O[C@H]3OC(C)(C)O[C@H]3[C@@H]2O)cc1	-9%[8 µM]	.
CCOC(=O)c1ccc(NC(=O)Cn2cc3c(n2)CCC(C)C3)cc1 (stereo not given)	4%	>57
Cc1cc(-c2cccnc2)c(C#N)c(SCC#N)n1	1%	>57
Cc1ccc(NC(=O)c2ccco2)cc1C	-25%	>57
O=C(Nc1nc2ccccc2n1Cc1ccc(Cl)cc1)c1ccco1	10%	>57
Cc1noc(C)c1-c1nc(NCc2ccccc2)c2ccccc2n1	?	>57
COc1cccc(CC(NC(C)=O)C(=O)NC2CCN(c3c4c(nc5ncnn35)CCC4)CC2)c1 (stereo not given)	-1%	>57
COc1ccccc1NC(=O)C1=C(C)Nc2nnnn2C1c1ccncc1 (stereo not given)	11%	>57
CC(C)Oc1cccnc1N(C)C1CCN(Cc2ccccc2)CC1	7%	>57
COc1ccc(C(c2nnnn2C(C)(C)C)N2CCN(c3nc4ccccc4s3)CC2)cc1OC (stereo not given)	?	>57
O=C1N(CCCN2C(=O)C3(OCCO3)c3ccccc32)c2ccccc2C12OCCO2	?	>57
COc1ccc(Cl)cc1Nc1nc(N2CCCC2)nc(N2CCCC2)n1	-15%	.
CCNc1ncc2nc(-c3cccs3)c(=O)n(CCC#N)c2n1	?	>57
CCC(=O)/C=C1\Sc2ccc(OC)cc2N1CC	-4%	.
O=C(c1ccccc1F)N1CCC(O)(c2cccnc2)CC1	5%	>57
CCCC(=O)n1nc(-c2ccc(Cl)cc2)nc1SC	0%	>57
CCN(CCCNS(=O)(=O)c1ccc2c(c1)CCN2C(C)=O)c1cccc(C)c1	-10%	>57
C[C@@H](CCCCC(=O)Nc1ccc(C(F)(F)F)cc1)NCCc1cnc[nH]1	-8%	>57
COc1ccc(C)cc1NC(=O)CCC(=O)Nc1ccc2nc(N3CCN(C)CC3)cc(C)c2c1	-2%	>57
CCc1nnc(NC(=O)CSc2nnc(CCc3nc4ccccc4[nH]3)n2C)s1	-26%	>57
Cc1nc2cnc(N3CCNCC3)nc2n(C2CC2)c1=O	-12%	>57
CCOC(=O)CSCC(=O)Nc1cc(C)ccc1C	.	>57
Nc1ncnc2c1nc(-c1ccccc1)n2[C@H]1O[C@@H](CO)[C@@H](O)[C@H]1O	2%[8 µM]	>57
FC(F)(F)c1cccc(NCc2cn3cccnc3n2)c1	?	>57
Cc1ccc(C(=O)Nc2ccccc2C(N)=O)o1	3%	>57
C=CCSc1nnc(-c2c[nH]c3ccccc23)n1CCOC	0%	>57
Nc1cc([N+](=O)[O-])ccc1O	-3%	.
O=C1[C@H]2O[C@@H]2[C@@H](O)[C@H]2[C@H]1CCn1c(=O)n(Cc3cc4c(cc3Cl)OCO4)c(=O)n12	4%[8 µM]	.
COc1c(Br)cc2c(C)c(C(=O)N3CCOCC3)oc2c1Br	17%	.
Cc1cnc(C(=O)Nc2ccccc2-c2nnn(CC(=O)NC3CCCC3)n2)cn1	1%	>57
CCC(C)N1C(=O)c2ccccc2C1C(=O)NC1CCCCCC1 (stereo not given)	7%	>57
CC(=O)Nc1nnc(S(N)(=O)=O)s1	11%[3.58 µM]	>57&>57
CC(=O)Nc1ccn(Cc2c(F)cccc2Cl)n1	5%	>57
CCOc1ccc(NC(=O)CC2NCCNC2=O)cc1 (stereo not given)	-2%	>57
Cn1c(SCc2cccc(F)c2)nnc1-c1ccccn1	6%	>57
O=C(O)c1cc(-c2ccncc2)nc2ccc(S(=O)(=O)N3CCOCC3)cc12	?	>57
COc1ccc2c(CC(=O)N(C)CC3COc4ccccc4O3)coc2c1 (stereo not given)	-6%	>57
C=CCc1cccc(CNc2nc3ccccc3n2CCN2CCOCC2)c1O	-2%	>57
CCn1nnc(NC(=O)c2cc(Cl)c(OC)c(Cl)c2)n1	-2%	>57
Cc1sc2ncnc(Sc3nnnn3-c3ccccc3)c2c1C	-2%	>57
C=CCn1sc(=N)c(C#N)c1N	-6%	>57
CCOC(=O)c1ccc(N2C(=O)CC(N3CCOCC3)C2=O)cc1 (stereo not given)	5%	>57
c1ccc2c3c(cc(N4CCOCC4)c2c1)OC1(N2CCOCC2)CCCCC1O3 (stereo not given)	?	>57
Next section.
SMILES	Anthrax LT inh	Prx2 Sm inh
O=S(=O)(O)CCCc1cccc2ccccc12	-1%[8 µM]	>57
Cc1nnc(NC(=O)CSc2nnnn2Cc2ccccc2)s1	0%	>57
CCCCC1CCC(C(=O)NC2CCS(=O)(=O)C2)CC1 (stereo not given)	-4%	>57
Cc1cc2c(=O)n(Cc3ccco3)c(SCC(=O)N3CCCc4ccccc43)nc2s1	.	>57
COc1ccc2nc(SCC(N)=O)cc(C)c2c1	.	>57
O=C(Nc1cccc(F)c1)N1CC=C(n2c(=O)[nH]c3ccccc32)CC1	4%	>57
COC(=O)[C@H]1C[C@@H]1[C@H](N)c1ccccc1	?	>57
CN(CCCNC(=O)COc1cc(=O)n(C)c2ccccc12)Cc1ccccc1	-7%	>57
Cn1c(=O)c(-c2ccccc2)nc2cnc(N3CCOCC3)nc21	?	>11
CCOC(=O)N1CCN(C(=O)CSc2nnc(CNC(=O)c3ccccc3F)o2)CC1	8%	>57
O=C1CCCC=C1[C@H](CCc1ccccc1)OC(=O)c1ccc(Br)cc1	-7%[1.6 µM]	.
O=C(Cn1c(=O)oc2cc(S(=O)(=O)N3CCCCCC3)ccc21)NC1CCCCC1	-16%	>57
O=C(O)CCCC(=O)Nc1ccc(C(=O)N2CCCCC2)c(Cl)c1	-14%	>57
Cc1cccc(C(=O)c2ccccc2C(=O)O)c1O	-4%	>57
CC(C)OC(=O)CC(=O)CSc1nc2c(cc1C#N)CCC2	-11%	>57
CCOc1ccc(N=NS(=O)(=O)O)cc1	-5%[8 µM]	>57
Cc1n[nH]c(C)c1S(=O)(=O)N(CC(=O)NC1CCCC1)c1ccc(C(C)C)cc1	-19%	>57
CCc1nnc(NC(=O)CN2CCN(c3ccccc3OC)CC2)s1	1%	>57
NC(=O)c1ccc(-n2nnnc2Oc2ccccc2)cc1	-1%	>57

Source: PubChem (National Center for Advancing Translational Sciences (NCATS))
